FGF22 binding: shifts melting point of recombinant human FGF22. calls only at 9.99 µM. Q9HCT0. AID 651658. recombinant FGF22 thermal shift, SYPRO orange fluorescence; percent of sucrose octasulfate shift, DMSO zero. 1.5% of 340,000 active;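 active = melting point raised past a set limit in the mean and every replicate; inconclusive = no clear call; three in four hits are not shown here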
E coli growth: E. coli growth inhibition; AID 1053175; OD600 absorbance (concentration not given with the values); 0.21% of 330,000 active; Escherichia coli growth, OD600, 23 h; active compounds read low;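 active = OD600 absorbance below the run mean of sample wells minus 3.6 SD, in any replicate, cut at about 0.56 in these data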;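 also: stock transfer was 300 nL into about 60 µL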
MLL AF4-AF9 inh: inhibitors of human MLL-AF4/AF9 interaction; AlphaScreen, biotin-AF4 peptide binding to FLAG-AF9; AID 651704; inhibition, % at 10 µM; 0.47% of 350,000 active;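 active = every replicate reaching a set inhibition limit, whatever the replicate mean, cut at about 25% in these data; inconclusive = mean inhibition reaches that limit but some replicates miss it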;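 also: 0% = plate neutral control median and 100% = total signal loss; the record names both 10 and 1 µM as test concentration; the first replicate is given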
Target sequence (P42568 whole entry, looked up): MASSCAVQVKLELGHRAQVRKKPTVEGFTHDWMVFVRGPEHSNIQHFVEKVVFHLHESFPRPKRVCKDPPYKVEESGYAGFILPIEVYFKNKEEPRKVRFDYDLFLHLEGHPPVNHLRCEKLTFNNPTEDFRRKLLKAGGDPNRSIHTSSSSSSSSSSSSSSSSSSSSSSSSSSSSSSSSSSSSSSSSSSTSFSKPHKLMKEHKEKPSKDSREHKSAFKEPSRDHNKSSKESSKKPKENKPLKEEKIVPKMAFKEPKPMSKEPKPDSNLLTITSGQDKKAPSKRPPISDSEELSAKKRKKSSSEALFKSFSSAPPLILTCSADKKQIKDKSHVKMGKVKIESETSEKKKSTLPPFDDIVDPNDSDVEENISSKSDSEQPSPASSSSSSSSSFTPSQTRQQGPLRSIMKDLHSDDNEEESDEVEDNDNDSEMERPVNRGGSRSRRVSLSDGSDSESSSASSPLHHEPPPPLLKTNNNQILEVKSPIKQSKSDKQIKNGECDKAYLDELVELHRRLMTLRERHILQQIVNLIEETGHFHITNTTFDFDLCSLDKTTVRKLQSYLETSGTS
Vif TR-FRET: inhibitors of Vif binding to APOBEC3G peptide, primary screen, biochemical, TR-FRET, GST-Vif 1-94, biotin-A3G peptide, dose response retest (AID 1117319). inhibition, %; hits with a dose series show IC50 in µM. 0.57% of 260,000 active. TR-FRET GST-Vif / biotin-A3G peptide binding; higher % means a stronger effect; test concentration not given here; strong numbers were not always called active;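 active = above the screen mean plus three standard deviations and confirmed in dose response; inconclusive = results disagree or hit not tested in dose response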;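 also: Vif residues 1-94 fused to GST binding biotinylated APOBEC3G peptide 110-148; 0% = full assay without inhibitor and 100% = GST in place of GST-Vif; retest series ran down from 100 µM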
HNF4A DNA FP: change in binding of human HNF4 alpha to DNA. P41235. HNF4a-FITC DNA binding, fluorescence polarization, 1 h. activity change, % at 10 µM. 0.3% of 360,000 active; in the data active = activity change above about 30%, passing the limit was not always enough;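 also: controls were the assay level and a saturating level of protein; the project sought stronger binding though the title names inhibitors; some compounds called inactive have numbers as strong as hits; positive values seem to mean higher polarization but the record does not say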
Target sequence (P41235 whole entry, looked up): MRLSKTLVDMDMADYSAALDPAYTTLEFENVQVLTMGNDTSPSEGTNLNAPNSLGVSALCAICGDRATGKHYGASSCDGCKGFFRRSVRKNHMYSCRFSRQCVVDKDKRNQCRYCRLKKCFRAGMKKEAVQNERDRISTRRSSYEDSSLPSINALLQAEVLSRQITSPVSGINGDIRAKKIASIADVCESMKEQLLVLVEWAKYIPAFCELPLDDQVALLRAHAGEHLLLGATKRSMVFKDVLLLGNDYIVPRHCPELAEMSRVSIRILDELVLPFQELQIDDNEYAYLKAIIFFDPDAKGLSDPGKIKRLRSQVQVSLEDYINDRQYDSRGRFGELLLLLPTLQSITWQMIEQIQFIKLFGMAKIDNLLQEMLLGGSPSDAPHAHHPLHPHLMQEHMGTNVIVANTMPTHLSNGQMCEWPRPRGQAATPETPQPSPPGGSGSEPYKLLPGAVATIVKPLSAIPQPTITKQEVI
ALR H2O2 inh: inhibitors of human sulfhydryl oxidase ALR; inhibition, % (concentration not given with the values); purified ALR, DTT oxidation, H2O2 HRP-luminol luminescence; AID 485317; P55789; 3.8% of 290,000 active;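 active = mean and each replicate at 75% or more; inconclusive = only one of the two met; inactive = neither met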;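 also: stock transfer was 7.5 nL into about 7.5 µL; 0% = neutral wells and 100% = wells with inactivated enzyme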
rRNA inh HTS: inhibitors of bacterial rRNA selective over humanized ribosomes; E. coli WT GFP vs humanized-ribosome RFP mutants, fluorescence, 24 h; active compounds read low; DMSO median 0, no signal -100; GFP signal change (wild-type ribosome), % (test concentration not listed); 1.6% of 350,000 active; AID 720706;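 active = significant combined selectivity score with lowered wild-type GFP, culture density cut under 30%, mutant RFP and density less affected; inactive = any of these conditions unmet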; also: one replicate is shown; some compounds called inactive have numbers as strong as hits
rRNA inh HTS OD600: further read-out of rRNA inh HTS, marked with its call; OD600 change, %; measured here: OD600 growth;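 optical density of the mix in the first replicate; 0 = DMSO median and -100 = no signal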
rRNA inh HTS RFP: second read-out of rRNA inh HTS, no call of its own (marks repeat the call); RFP signal change, %; measured here: RFP humanized mutant strains;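 first replicate; 0 = DMSO median and -100 = no signal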
* = called active by the depositor; i = inactive; ? = inconclusive; . = no result given.

The line under a structure holds: Vif TR-FRET	rRNA inh HTS RFP	HNF4A DNA FP	ALR H2O2 inh	MLL AF4-AF9 inh	rRNA inh HTS OD600	E coli growth	rRNA inh HTS	FGF22 binding
[1] CCC(=NCCc1c[nH]c2ccccc12)c1c(O)n(-c2ccc(C)cc2)c(=O)[nH]c1=O
    .	.	-0.4	3.8	6.6	.	0.704	.	i
[2] CCOC(=O)C1(CCc2ccccc2)CCN(Cc2csc(C(C)=O)c2)CC1
    0.0%	3.2	0.5	-2.5	5.8	-24.4	0.662	-20.1	i
[3] N#Cc1ccc(CN2Cc3ccccc3-n3nncc3C2)cc1
    4.9%	.	-2.6	.	0.7	.	.	.	i
[4] O=C(COC(=O)Cc1ccccc1)Nc1ccc(Cl)cn1
    10.0%	0.5	0.5	-5.0	-2.9	-6.0	0.682	-1.9	i
[5] COc1ccccc1NC1(C#N)CCCCC1
    -8.7%	-1.5	-1.5	-8.7	-8.4	15.3	0.677	6.8	i
[6] COc1ccc(C=C2C(=O)NC(=S)NC2=O)cc1OC
    2.0%	4.0	-1.6	.	-4.5	15.3	0.67	17.2	i
[7] COc1cc2c(cc1OC)C(C(=O)N1CCC3(CC1)OCCO3)C(c1ccccc1F)N(C)C2=O (stereo unspecified)
    14.1%	.	-2.9	-15.5	.	.	0.677	.	.
[8] O=c1[nH]c(=S)[nH]c(O)c1N=Nc1cc2c(cc1[N+](=O)[O-])OCO2
    ?	1.3	17.1	-7.4	0.7	2.3	0.623	13.5	i
[9] N#Cc1cccc(-c2ccc([C@H]3[C@@H](CO)N4CCCCN(C(=O)Cc5ccccc5)C[C@@H]34)cc2)c1
    .	21.5	.	.	-4.9	-52.2	.	-20.5	i
[10] CC1CCSP(=O)(Oc2ccccc2)O1 (stereo unspecified)
    6.2%	1.9	-4.9	-5.3	.	6.4	0.647	9.6	i
[11] C[C@]12C[C@H](O)[C@@H](O)C[C@@H]1CC[C@@H]1[C@@H]2CC[C@]2(C)C(=O)CC[C@@H]12
    .	-10.9	0.5	.	-3.1	3.9	.	-14.1	i
[12] CC1(C)C2SCC(=O)N2CCN1CC(=O)NN (stereo unspecified)
    .	-0.2	-5.7	-6.9	.	7.1	0.715	5.2	i
[13] COc1cc([N+](=O)[O-])c2nc(C)ccc2c1[N+](=O)[O-]
    .	6.3	-1.4	.	-2.9	11.9	.	24.6	i
[14] O=C1C2CCCC1C(N1CCCCC1)CC2 (stereo unspecified)
    1.7%	2.0	2.8	-18.3	-7.7	13.9	0.631	10.9	i
[15] c1ccc2c(CNC3CCCCCC3)c[nH]c2c1
    8.3%	.	-2.6	62.2	.	.	0.694	.	.

An excerpt from above, limited to ALR H2O2 inh and MLL AF4-AF9 inh:
No.	molecule	ALR H2O2 inh	MLL AF4-AF9 inh
15	c1ccc2c(CNC3CCCCCC3)c[nH]c2c1	62.2	.
5	COc1ccccc1NC1(C#N)CCCCC1	-8.7	-8.4
10	CC1CCSP(=O)(Oc2ccccc2)O1 (stereo unspecified)	-5.3	.

Next section:
The line under a structure holds: Vif TR-FRET	rRNA inh HTS RFP	HNF4A DNA FP	ALR H2O2 inh	MLL AF4-AF9 inh	rRNA inh HTS OD600	E coli growth	rRNA inh HTS	FGF22 binding
[16] Cc1ccccc1O
    .	.	-2.1	.	-2.9	.	0.727	.	i
[17] CCCCCn1c(=O)c(C(=O)NCc2ccccc2Cl)c(O)c2ccccc21
    .	6.8	-1.0	-1.0	-3.1	24.3	0.66	28.8	i
[18] CSC1=NP(=S)(SC)N(C)c2nc3n(c21)CCC3 (stereo unspecified)
    -16.8%	.	.	-4.2	.	.	0.733	.	.
[19] CC(C)CCNC(=O)c1c(N)n(Cc2ccc3c(c2)OCO3)c2nc3ccccc3nc12
    3.2%	.	-2.4	3.8	.	.	0.691	.	.
[20] COC(=O)C1=C(c2c(C)noc2C)C[C@@H]2CC[C@H]1N2C(=O)NCc1ccc(F)cc1
    .	-5.0	-7.6	0.3	-2.1	3.4	.	4.4	i
[21] CSc1nnc([C@@H](N)Cc2c[nH]c3ccccc23)o1
    -4.7%	-1.2	4.4	-11.6	1.1	1.3	.	8.7	i
[22] CC(C)OP(=O)(Oc1ccc(C(O)C(Cl)(Cl)Cl)cc1)OC(C)C (stereo unspecified)
    -3.8%	1.9	0.7	-4.0	-2.6	-20.3	0.674	-7.8	i
[23] CCCCNc1ccncc1S(=O)(=O)NC(=O)NC(C)C
    -0.1%	.	2.6	-2.9	.	.	0.808	.	.
[24] COC(=O)C1=C(c2ccccc2)C[C@@H]2CC[C@H]1N2C(=O)NC1CCCCC1
    .	.	0.3	20.0	0.7	.	.	.	i
[25] O=C(Cc1ccccc1)N1C[C@@H]2[C@H](c3ccccc31)[C@H](CO)N2Cc1ccccc1
    .	-3.6	.	.	0.1	-28.9	.	-11.8	i
[26] COC(=O)C(O)(c1ccc(NC(=S)NC(=O)c2ccccc2)cc1)C(F)(F)F (stereo unspecified)
    -1.0%	.	-1.0	15.1	.	.	0.714	.	.
[27] CCCCCCC(=O)N/N=C/c1c(O)n(CCc2ccccc2)c(=O)[nH]c1=O
    -3.8%	3.0	-2.2	-11.8	-3.0	9.0	0.71	5.5	i
[28] CCC(C)n1c(O)c(C=NCC2CCCO2)c(=O)[nH]c1=S (stereo unspecified)
    -2.5%	-1.9	1.5	.	-6.7	-3.0	0.707	2.2	i
[29] Cc1cccc(NP(=O)(Oc2ccccc2F)Oc2ccccc2F)c1C
    .	-1.2*	-3.1	-0.5	-0.6	-3.3*	0.651	-28.6*	i
[30] COc1ccc(-n2c(/C=C/c3ccc(O)cc3)nc3ccccc3c2=O)cc1
    -3.2%	-2.2	5.8	-1.8	6.9	-6.3	0.688	-8.0	i
[31] CCCCn1c(O)c(/C=N/NC(=O)c2ccncc2)c(=O)[nH]c1=O
    3.7%	-0.9	10.7	15.1	-5.5	8.5	0.677	5.4	i
[32] O=c1c2ccccc2nc(/C=C/c2ccccn2)n1-c1ccccc1
    .	-3.1	0.6	-3.5	-0.9	7.1	0.735	23.1	i
[33] CC1(C)CC(=O)C(C=NCCN2CCN(C(=O)Cc3ccc(Cl)cc3)CC2)=C(O)C1
    -1.1%	.	-4.0	0.4	.	.	0.713	.	.
[34] CC(NCC#Cc1ccccc1)C(O)c1ccccc1 (stereo unspecified)
    1.0%	18.7	-0.2	-3.7	0.3	3.1	0.696	11.7	i
[35] COC(=O)[C@@H]1N=C(c2ccc(OC)cc2)O[C@]12C(=O)N(Cc1ccc(OC)cc1)c1ccccc12
    .	2.6	-0.2	.	1.3	0.3	.	1.7	i
[36] CC[n+]1c(/C=C/N(C)c2ccccc2)sc2ccc(Cl)cc21
    2.5%	.	-1.6	.	.	.	0.668	.	.
[37] COC(=O)C1=C(c2ccc(F)cc2F)C[C@@H]2CC[C@H]1N2C(=O)N1CCC(O)(c2ccc(Cl)cc2)CC1
    .	-5.8	-1.2	-0.3	7.7	-6.0	0.757	-3.9	i
[38] CN(C)CC#CCOCCOCCC#N
    0.2%	.	3.8	-2.9	.	.	0.686	.	.
[39] C[N+]12CCC(CC1)C(=C(c1ccccc1)c1ccccc1)C2
    7.6%	1.3	1.6	-3.4	5.8	8.4	0.697	12.0	i
[40] COc1cc(CC(=O)N2C[C@H]3C[C@@H](C2)c2cccc(=O)n2C3)cc(OC)c1OC
    .	-1.0	10.0	-15.5	.	1.9	0.667	0.6	i
[41] CCOC(=O)c1ccccc1N
    .	2.6	0.2	.	-2.3	10.6	0.703	9.7	i
[42] Cc1cccc(NP(C)(=O)c2nc3c(s2)CCCC3)c1 (stereo unspecified)
    2.3%	0.8	-1.9	-14.0	-0.2	-3.0	0.715	6.3	i
[43] O=C(c1ccc2c3c(cccc13)CC2)C1CCCN(CC2CC2)C1 (stereo unspecified)
    17.2%	-1.1	3.0	-4.2	11.9	-21.6	0.629	-21.9	i
[44] COc1cccc(CNCCc2ccccc2)c1OC
    -0.2%	-1.2	1.0	-15.4	0.0	8.4	0.673	9.7	i
[45] COc1ccc(C(CNC(=O)CCc2ccsc2)N(C)C)cc1 (stereo unspecified)
    -4.3%	-5.1	0.6	-4.3	-9.8	6.3	0.683	2.3	i
[46] C/C(=C/C=C/[C@@H](C)C(=O)O)[C@H]1CN[C@H](C(=O)O)[C@H]1CC(=O)O
    ?	-2.9	-12.3	-9.5	-2.9	1.1	0.717	-2.4	i
[47] CC(C)(C)NC(=S)N1Cc2ccccc2-n2nncc2C1
    1.4%	-0.2	-4.7	.	-2.7	14.4	.	2.5	i
[48] CC(=O)N1CN2CN(C1)CN(C(C)=O)C2
    -3.1%	.	0.9	-1.9	.	.	0.704	.	.
[49] COc1ccc(-c2ccc3c(c2)CN(c2cccc(Cl)c2)Cc2cnnn2-3)cc1
    .	-5.0	1.4	.	-1.2	-0.5	.	-5.0	i
[50] Cc1ccc(N2CCN(CCc3ccccc3)CC2)cc1
    1.6%	-12.9	-6.2	34.1	4.9	-8.7	0.692	-12.5	i
[51] CC(=O)Nc1ccc(C(=O)OCC(=O)Nc2ccc(Cl)cc2C(=O)c2ccccc2)cc1
    .	.	-0.6	0.0	.	.	0.709	.	.
[52] N#CC12CC(=O)N1Cc1cnnn1-c1ccccc12 (stereo unspecified)
    .	3.9	5.3	.	-2.2	12.4	.	11.4	i
[53] O=P(Nc1cccnc1)(Oc1ccccc1)Oc1ccccc1
    -3.2%	1.2	1.4	3.1	0.8	8.6	0.699	17.4	i
[54] O=C(O)c1nonc1-c1nonc1C(=O)O
    14.8%	2.2	5.6	-12.1	-3.9	6.5	0.677	11.6	i
[55] Cc1cccc(-n2c(CN3C(=O)c4ccccc4C3=O)nc3ccccc3c2=O)n1
    .	.	1.2	-7.0	.	.	0.717	.	.
[56] CCOC(=O)C1CN(C)CCC1=O (stereo unspecified)
    0.4%	.	0.1	4.2	.	.	0.731	.	.
[57] NS(=O)(=O)c1ccc(N=Cc2c(O)n(-c3ccccc3)c(=O)[nH]c2=O)cc1
    .	3.0	8.0	-1.8	-10.4	11.9	0.685	-3.6	i
[58] CN1CCN(C(=O)COc2ccc3ccccc3c2Br)CC1
    -8.2%	7.8	3.0	-38.1	6.3	-12.1	0.657	-17.8	i
[59] CC(=O)N1CCN(c2ccc([N+](=O)[O-])cc2C=C2C(=O)NC(=O)NC2=O)CC1
    14.7%	.	2.4	-14.4	.	.	0.717	.	.
[60] CCC(C)n1c(O)c(C=NCCN2CCOCC2)c(=O)[nH]c1=S (stereo unspecified)
    7.7%	0.3	-0.8	-4.1	-3.0	5.8	0.666	1.4	i
[61] O=P(NS(=O)(=O)c1ccccc1)(Oc1ccccc1)Oc1ccccc1
    15.9%	.	3.7	1.2	.	.	0.691	.	.
[62] CCCCOc1nc2ccccc2c(=O)n1-c1ccccc1
    -4.9%	.	-1.4	-3.0	.	.	0.694	.	.
[63] O=C(Cc1ccncc1)N1CCCCN2[C@@H](CO)[C@@H](c3ccc(C#CC4(O)CCCC4)cc3)[C@@H]2C1
    .	-2.3	.	.	0.1	17.1	.	5.7	i
[64] Cc1ccccc1-n1c(O)c(C=NCCN2CCOCC2)c(=O)[nH]c1=O
    4.7%	.	2.4	-2.0	.	.	0.731	.	.
[65] Cc1ccsc1C(=O)C1CCCN(Cc2ccccc2O)C1 (stereo unspecified)
    3.6%	-2.8	3.2	13.5	-2.7	-8.7	0.621	-7.2	i
[66] COc1ccc(C#Cc2ccc([C@@H]3[C@H]4CN(C(=O)Cc5ccccc5)CCCCN4[C@H]3CO)cc2)cc1
    .	1.5	.	.	0.8	-9.6	.	-3.9	i

Screens from PubChem.

The list is partial (hit frequency here may not be typical).
